# Source: PubChem
# LASV entry inh – qHTS for Inhibitors of binding or entry into cells for Lassa Virus | Lassa virus pseudotype entry inhibition, cell reporter; control for the full effect not named in the record | Potency, µM (titrated, usually from 37.9 µM), without a hit: at the highest dose activity change, negative = inhibition, most hits filed as inhibitors | 300,000 compounds, 1.2% hits | AID 540256, 2011; active means well fitted inhibition curve with a large enough effect; inconclusive means small, poorly fitted or top-dose-only effect, or effect the other way; inactive means flat fitted curve, though single readings scatter; tested in HEK293 cells; note: % is set by controls: 0 for no effect and ±100 for the full control effect; nearly all actives have a fitted effect of over 50% in size; luciferase read-out
# SARS PLP yeast – qHTS of Yeast-based Assay for SARS-CoV PLP; S. cerevisiae expressing SARS-CoV PLpro, growth rescue; control for the full effect not named in the record; Potency, µM (top dose mostly 32.9 µM), inactives show at the highest dose activity, positive = growth rescue; 330,000 compounds, 0.19% hits; active means well fitted rising curve with a large enough effect; inconclusive means small, poorly fitted or top-dose-only effect; inactive means no such curve, though single readings can be large or run the other way; note: 0% is about no effect; nearly all actives have a fitted effect of over 55% in size; growth read by luminescence after 48 h
# 2A StopGo – High Throughput Screening for Foot and Mouth Disease Virus Antivirals | human cells with a luciferase reporter of 2A StopGo recoding; control for the full effect not named in the record | Potency, µM (doses to about 57.9 µM), without a hit: top-dose signal change, negative = less light | 410,000 compounds, 1.2% hits; active = well fitted falling curve with a large enough effect; inconclusive = small, poorly fitted or top-dose-only effect; inactive = no such curve, though single readings can be large or run the other way; tested in HEK293T cells; note: % is set by controls: 0 for no effect and ±100 for the full control effect; nearly all actives have a fitted effect of over 45% in size; luciferase light after 4 h
# RE007 growth inh – qHTS Assay for Inhibitors of the HIV-1 protein Vpr; S. pombe RE007 Vpr strain, BacTiter-Glo ATP luminescence, 24 h; control for the full effect not named in the record; Potency, µM (top dose mostly 92.2 µM), inactives show top-dose activity change, negative = less growth; 360,000 compounds, 0.21% hits; active = well fitted falling curve with a large enough effect; inconclusive = small, poorly fitted or top-dose-only effect; inactive = no such curve, though single readings can be large or run the other way;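 note: % is set by controls: 0 for no effect and ±100 for the full control effect; nearly all actives have a fitted effect of over 50% in size; the assay follows cell death caused by Vpr and the record does not say whether a fall means rescue or toxicity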
#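 Fission yeast strain RE007, carrying one chromosomally integrated HIV-1 vpr copy, was seeded at OD 0.01 in PMG+AL medium with 23 nL pinned compound. After 24 h at 30 °C and 99% humidity, viability was read by BacTiter-Glo luminescence.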
# Cruzain inh Det – qHTS Assay for Promiscuous and Specific Inhibitors of Cruzain (with detergent). Cruzipain (Trypanosoma cruzi), P25779. purified cruzain, Z-FR-AMC fluorescence, 0.01% Triton. Potency, µM, for the others: max response, negative = inhibition, hits mostly inhibitors. 200,000 compounds, 0.43% hits. AID 1478, 2009;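 note: plate controls were neutral wells for no effect and buffer without enzyme for full effect; nearly all actives have a fitted effect of over 40% in size; top concentration of the series not given in the record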
# Target sequence (P25779 123-467 limits assumed): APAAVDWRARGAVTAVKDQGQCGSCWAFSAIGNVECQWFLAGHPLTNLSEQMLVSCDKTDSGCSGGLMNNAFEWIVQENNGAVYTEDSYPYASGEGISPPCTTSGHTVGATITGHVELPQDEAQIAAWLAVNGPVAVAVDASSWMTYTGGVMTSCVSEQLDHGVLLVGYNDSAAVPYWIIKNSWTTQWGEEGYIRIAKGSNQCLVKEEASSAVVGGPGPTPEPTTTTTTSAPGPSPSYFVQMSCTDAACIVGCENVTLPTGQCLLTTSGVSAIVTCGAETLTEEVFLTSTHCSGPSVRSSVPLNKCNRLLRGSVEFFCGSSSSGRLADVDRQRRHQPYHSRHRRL
#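 In this qHTS format, compounds are incubated with 1.5 nM cruzain for 15 min at room temperature before 2 uM Z-FR-AMC is added. Release of AMC is followed at 360/450 nm, and progress is taken as the 60 s fluorescence difference.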
# Cruzain inh noDet – qHTS Assay for Promiscuous and Specific Inhibitors of Cruzain (without detergent). purified cruzain, Z-FR-AMC fluorescence, no detergent. Potency, µM, inactives show max response, negative = inhibition, hits mostly inhibitors. 200,000 compounds, 2.3% hits. AID 1476, 2009;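 note: plate controls were enzyme without inhibitor for no effect and buffer without enzyme for full effect; nearly all actives have a fitted effect of over 40% in size; top concentration of the series not given in the record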
#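 Purified cruzain at 1.5 nM, pre-incubated 15 min with compound at room temperature in 100 mM sodium acetate pH 5.5, 5 mM DTT, 0.00005% Triton X-100. Reaction started with 2 uM Z-FR-AMC; AMC fluorescence increase over 60 s gives rate.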
# MARV entry inh – qHTS for inhibitors of binding or entry into cells for Marburg Virus. Marburg virus pseudotyped entry inhibition, cell reporter; control for the full effect not named in the record; about a third of the inactives were read at about 46 µM. Potency, µM (highest dose often 37.8 µM), for the others: at the top dose activity change, negative = inhibition, most hits filed as inhibitors. 300,000 compounds, 1.8% hits. AID 540276, 2011; active = well fitted inhibition curve with a large enough effect; inconclusive = small, poorly fitted or top-dose-only effect, or effect the other way; inactive = flat fitted curve, though single readings scatter; tested in HEK293 cells; about a fifth of its hits are not listed in these tables; note: % is set by controls: 0 for no effect and ±100 for the full control effect; luciferase read-out
# NS1 inh – qHTS Assay for Inhibitors of Influenza NS1 Protein Function | Potency, µM (doses to about 46.1 µM), for inactives: at the highest dose activity, positive = more growth | 270,000 compounds, 0.4% hits | AID 2326, 2010 | S. cerevisiae slowed by influenza A NS1, growth recovery by OD600; active means well fitted rising curve with a large enough effect; inconclusive means small, poorly fitted or top-dose-only effect; inactive means no such curve, though single readings can be large or run the other way; note: nearly all actives have a fitted effect of over 50% in size
#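 Growth recovery, yeast-based: influenza A NS1 expressed in S. cerevisiae causes slow growth, and suppressors are detected by OD600. The parent strain without NS1 is used as positive control.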
# * marks the source's active call; other numbers are inactive results; ? = inconclusive; nt = no result given; & = joins results of further samples; [ ] = another dose, or the depositor's remark. Unless noted, calls come from the whole dose curve; as a rule, active = well fitted curve in the direction sought with a large enough effect; inconclusive = small, poorly fitted or top-dose-only effect, or another doubt; inactive = no such curve, though single readings can be large; an effect the other way counts as inactive or inconclusive. Potency is the fitted concentration of half-maximal effect.
SMILES,LASV entry inh,SARS PLP yeast,2A StopGo,RE007 growth inh,Cruzain inh Det,Cruzain inh noDet,MARV entry inh,NS1 inh
CCCN(C(=O)c1cc2c(s1)-c1c(C)cccc1OC2)c1ccc(OCC)cc1,nt,nt,-28.5%,nt,-0.7%,-1.7%,?,nt
CCCCNc1nc2ccccc2[nH]1,9.7%,0.8%,-14.6%,-21.2%,-12.3%,-15.0%,-14.7%,1.6%
CCOc1ccc(N(CC(=O)Nc2ccc(OC)cc2)S(C)(=O)=O)cc1,-1.5%,0.7%,13.1%,14.1%,1.4%,3.0%,-0.3%,-2.8%
CC(CC(=O)Nc1ccc(Cl)c([N+](=O)[O-])c1)c1ccccc1 (stereo not given),?,-36.0%,?,-23.6%,-7.8%,-1.0%,?,-102.7%
O=c1c2c(-c3ccc(Cl)cc3)csc2nc2n1CCC2,-26.3%,-0.4%,-19.1%,3.6%,2.9%,5.3%,2.8%,-36.3%
CCOc1ccc(-n2c(=O)c3c(C)c(C(=O)N(C)C)sc3n(CC(=O)Nc3ccccc3F)c2=O)cc1,-22.5%,-2.5%,-9.2%,-7.9%,nt,nt,1.3%,nt
Cc1cc(C)c(NC(=O)Cn2nnc(-c3nc(-c4ccncc4)no3)c2N)c(C)c1,16.6%[46.1 µM],nt,-13.7%,nt,-1.1%,7.8%,nt,nt
Cc1c(Cl)cccc1NC(=S)NNS(=O)(=O)c1ccc([N+](=O)[O-])cc1,-1.0%,-2.2%,8.4%,24.2%,nt,nt,9.3%,?
Cc1ccc(-c2nsc(SCC(=O)Nc3ccc4c(c3)OCO4)n2)cc1,-4.0%,-10.2%,-20.2%,-13.3%,-2.3%,-4.7%,30.4%&30.4%,-0.6%
Cc1cc(C)c(OCCN2CCCC2)c(Cl)c1,nt,-1.4%,-14.1%,-8.4%,nt,nt,nt,-8.4%
Cc1[nH]c2ccccc2c1/C=N/NC(=O)CNC(=O)c1ccc2c(c1)OCCO2,-6.8%[46.1 µM],-1.5%,-8.3%,2.4%,nt,nt,?,-2.3%
CCOC(=O)c1noc2nc(C)n(CC(=O)Nc3cccc(OC)c3)c(=O)c12,?,nt,-7.9%,nt,-2.1%,-3.5%,nt,nt
O=C(CN1CCN(c2ccc(Cl)cc2)CC1)NCc1ccccc1,6.31µM*,-0.7%,-20.5%,10.3%,nt,nt,?,-5.6%
O=C(Nc1ccc2nc(SCC(=O)N3CCOCC3)sc2c1)c1ccc(Cl)cc1,?,nt,20µM*,nt,-8.7%,?,?,nt
COc1ccc(C(=O)Nc2cc(-c3ccc(C)cc3)no2)cc1,nt,-0.5%,-17.0%,4.2%,nt,nt,nt,-4.3%
Cc1ccc(/C=N/N=C/c2ccc(C)cc2)cc1,2.6%,2.5%,44.8%[activator],11.0%,1.7%,?,7.0%,1.8%
O=C(NCc1cccnc1)C1CC(=O)N(C2CCCCC2)C1 (stereo not given),23.6%,0.7%,nt,-7.9%,6.0%,-7.9%,6.7%,0.9%
COc1ccc(OC)c(NC(=S)N2CCC(C(O)(c3ccccc3)c3ccccc3)CC2)c1,6.1%,-14.4%,-19.5%,nt,-6.8%,-2.1%,-11.8%,?
COc1cccc(-n2cc(CNC(=O)C3CCC(=O)N(C4CC4)C3)cn2)c1 (stereo not given),0.1%[46.1 µM],5.0%,-1.7%,-1.3%,nt,nt,1.0%[46.1 µM],0.5%
COc1cc(CNn2cn[nH]c2=S)cc(Cl)c1OCc1ccccc1,28.1%,-6.9%,4.5%,13.2%,-1.6%,-4.4%,1.0%,29.3%
O=C(CCN1C(=O)c2ccccc2C1=O)N1CCN(c2ccccc2)CC1,-5.0%,7.9%,-9.9%,-2.0%,-1.3%,-3.1%,14.1%,-1.6%
CNC(=O)C1CCC(Cn2c(=O)c3sccc3n(CC(=O)Nc3ccc(C)c(C)c3)c2=O)CC1 (stereo not given),-22.5%[46.1 µM],nt,-26.6%,nt,-1.0%,?,nt,nt
COc1ccc(NC(=O)CN(C)C(=O)c2cccc(S(=O)(=O)Nc3ccccc3Cl)c2)cc1,-2.2%,-4.5%,31.3%[activator],0.4%,nt,nt,7.7%,nt
Nn1c(Cc2ccccc2F)nnc1SCCOc1ccc(Cl)cc1,?,9.6%,?,-0.1%,-1.8%,6.1%,3.1%,4.0%
CCOCCCNC(=O)C(NC(=O)C1CCC(=O)N1)c1ccc(C)cc1 (stereo not given),-22.7%,-4.5%,3.5%,9.4%,-0.7%,3.8%,1.2%[46.1 µM],-5.2%
# More structures follow.
SMILES,LASV entry inh,SARS PLP yeast,2A StopGo,RE007 growth inh,Cruzain inh Det,Cruzain inh noDet,MARV entry inh,NS1 inh
CCC(C)NS(=O)(=O)c1ccc(S(=O)(=O)Nc2cc3c(cc2C(C)=O)OCO3)cc1 (stereo not given),19.7%,4.6%,-1.8%,4.9%,-1.1%,-5.4%,-7.9%,-24.8%
Cc1cc(S(=O)(=O)NCc2ccccc2)ccc1OCC(=O)N1CCN(C)CC1,6.9%,4.3%,nt,1.5%,0.5%,5.8%,10.2%,0.3%
O=C(O)CCC(=O)NC1CCCCC1,-12.4%,2.9%[6.58 µM],18.2%,5.1%,4.5%,-2.9%,7.2%,5.6%
Cc1nc(N)nc2c1CCCC2,4.4%,15.0%,?,-10.1%,3.4%,1.6%,-8.7%,-6.4%
O=C(CSc1nc(-c2ccco2)cc(C(F)(F)F)n1)N1CCCc2ccccc21,2.9%,-4.3%,0.0%,-6.1%,-18.8%,19.2%,4.8%&4.8%,-33.2%
NS(=O)(=O)c1cccc(NC(=O)COC(=O)CC2CC3CCC2C3)c1 (stereo not given),-13.5%[46.1 µM],-3.6%,25.2%,3.9%,nt,nt,5.1%[46.1 µM],nt
CCOc1cc(NC(=S)NCC2CCCO2)c(OCC)cc1NC(=O)c1cccc(F)c1 (stereo not given),-1.8%,0.0%,5.5%,-1.5%,nt,nt,?,?
COc1ccc(Oc2c(Cl)cnn(-c3ccccc3)c2=O)cc1,?,-1.3%,?,-10.5%,2.2%,0.9%,10µM*,-11.9%
NNS(=O)(=O)c1ccc(Cc2ncc(C(F)(F)F)cc2Cl)s1,-9.4%,-1.3%,-1.9%,9.1%,-2.1%,-2.4%,-5.3%[46.1 µM],10.6%
N#C/C(C(=O)Oc1ccccc1)=C1\C=Cc2ccccc2N1,-11.3%,3.3%,35.2%[activator],4.3%,-0.5%,-8.7%,16.8%,3.5%
CCc1c(C)nc2cc(-c3cccc(Br)c3)[nH]n2c1=O,nt,0.2%,24.1%,1.1%,nt,nt,nt,?
COCCN1CCN(C(=O)c2cc(COc3cncc(Cl)c3)on2)CC1,-20.9%,7.0%,-18.0%,5.4%,nt,nt,?,-6.5%
CSc1cccc(NC(=S)N(CCCN2CCCC2)Cc2cccs2)c1,?,4.8%,21.5%,-1.9%,nt,nt,?,nt
COc1cc(/C=C(\NC(C)=O)C(=O)Nc2ccc(NC(C)=O)cc2)ccc1OC(C)=O,?,-5.4%,11.3%,-1.5%,-2.4%,5.5%,12.5%,10.5%
COc1ccc(S(=O)(=O)NCc2ccc(C(=O)N(C)Cc3ccco3)cc2)cc1,-28.4%,3.2%,nt,11.4%,0.7%,-7.5%,-9.4%,-0.7%
Cc1ccc(C)c(NC(=O)CN(C)C(=O)c2cccc(S(=O)(=O)N3CCN(Cc4ccccc4)CC3)c2)c1,?,-0.6%,14.1µM*,7.0%,nt,nt,?,-22.9%
O=Cc1cn(Cc2ccccc2[N+](=O)[O-])c2ccccc12,?,7.9%,-28.9%,-4.5%,-4.0%,-19.7%,?,?
Cc1ccccc1NC(=O)Cc1nnc(SCC(=O)c2ccc(Br)cc2)n1C,-9.5%,9.6%,2.2%,1.6%,3.0%,-7.2%,16.8%,10.3%
CCSC1=NN2CCS(=O)(=O)N=C2S1,-17.3%,3.7%,-10.0%,13.9%,nt,nt,-2.3%[46.1 µM],nt
Cc1ccc(NC(=O)[C@@H](NC(=O)N2C[C@H]3C[C@@H](C2)c2cccc(=O)n2C3)C(C)C)cc1,nt,1.5%,-1.1%,3.8%,nt,nt,nt,-3.4%
Cc1cccc(N2CCN(c3cccc(C)c3)C2c2cccnc2)c1,16.5%,-9.8%,-10.9%,-27.6%,-4.9%,2.1%,-2.7%,-17.2%
Cc1ccc(C(=O)OCC(=O)NC2CCCCC2)s1,-4.5%,-1.7%,56.4%[activator],?,nt,nt,1.3%[46.1 µM],nt
O=S(=O)(c1ccccc1)N1CC1c1ccccc1 (stereo not given),?,7.9%,107.5%[activator],-2.2%,-0.4%,-2.5%,?,8.3%
Cc1ccc(Sc2ccc(N3CCC(C(=O)Nc4ccc(Cl)cc4)CC3)nn2)cc1,?,nt,-8.5%,nt,-3.4%,10.9%,-15.1%[46.1 µM],nt
CC(C)(CC(=O)O)CC(=O)Nc1ccccc1Oc1ccccc1,-12.6%[46.1 µM],0.1%,0.7%,-7.0%,nt,nt,1.5%[46.1 µM],2.1%
# (cont.)
SMILES,LASV entry inh,SARS PLP yeast,2A StopGo,RE007 growth inh,Cruzain inh Det,Cruzain inh noDet,MARV entry inh,NS1 inh
O=C(CSc1nc2ccc(Nc3nc(N4CCOCC4)nc(N4CCOCC4)n3)cc2s1)NCc1ccco1,-15.9%[46.1 µM],0.7%,-6.9%,-15.7%,nt,nt,?,nt
CC(=O)N1N=C(c2ccco2)CC1c1ccc(Cl)o1 (stereo not given),nt,7.8%,-5.7%,-3.1%,nt,nt,nt,1.0%
CC(C)CCNC(=O)c1ccc2c(SCC(=O)O)c3c(nc2c1)CCCC3,17.3%,17.0%,-3.0%,-9.6%,?,5.5%,11.8%,1.8%
Cc1[nH]c2ccccc2c1Cc1n[nH]c(=S)o1,nt,-1.9%,-28.2%,-1.4%,7.1%,-5.1%,nt,?
Cc1cccc(C(=O)OCCN2CCOCC2)c1,7.7%,3.9%,0.0%,-3.5%,nt,nt,4.9%,24.8%
O=C(Cn1nnc(-c2ccc(N3CCOCC3)cc2)n1)OC1CCCCC1,?,-4.0%,-9.2%,-1.7%,-7.8%,-2.7%,7.0%,-10.5%
O=Cc1ccc(Sc2nnc(-c3ccccc3)o2)c([N+](=O)[O-])c1,-14.4%,-12.0%,0.1%,?,-4.2%,6.2%,?,-9.4%
